Screens from PubChem BioAssay.
Insulin prom inh = TRM-6 insulin promoter activity inhibition. AID 1273. inhibition, % at 2 µM. TRM-6 cells (human fetal islet line), insulin promoter-eGFP reporter, imaging; reporter expression induced with tamoxifen. 130,000 compounds, 0.9% hits;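 active = inhibition above the mean plus 3 SD, with well images judged a real hit on visual review, cut at about 60% in these data, passing the limit was not always enough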
PKD1 inh = blocks activity of human protein kinase D1; Q15139; PKD1 kinase fluorescence polarization assay; inhibition, %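 (about 10 µM by stock and volumes)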; 200,000 compounds, 0.056% hits; AID 797;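 active = inhibition of 50% or more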;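 note: controls were vehicle for no effect and a reference inhibitor for full effect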
GALR2 ag = activates the human galanin receptor 2; O43603; GALR2-expressing cells, agonist activation read-out; activation, %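 (tested at 5 µM)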; 140,000 compounds, 0.48% hits; AID 803;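 active = above mean plus 3 SD of all compounds, about 5% in these data, not always enough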;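 note: 0% = vehicle buffer wells and 100% = reference agonist at full effect; tested in CHO reporter cells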
Target sequence (O43603 whole entry, looked up): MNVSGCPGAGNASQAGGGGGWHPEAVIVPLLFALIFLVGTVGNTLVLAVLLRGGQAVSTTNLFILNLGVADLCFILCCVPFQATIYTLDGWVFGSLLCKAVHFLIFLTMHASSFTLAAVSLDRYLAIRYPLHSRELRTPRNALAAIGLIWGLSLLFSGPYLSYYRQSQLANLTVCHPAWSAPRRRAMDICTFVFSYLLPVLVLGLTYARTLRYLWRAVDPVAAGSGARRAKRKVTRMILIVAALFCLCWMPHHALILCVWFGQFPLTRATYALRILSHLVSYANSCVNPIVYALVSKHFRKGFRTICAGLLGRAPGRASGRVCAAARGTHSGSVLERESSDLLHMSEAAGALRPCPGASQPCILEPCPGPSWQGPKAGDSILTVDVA
RGS16-Gao = regulators of human RGS16-Galphao interaction; O15492+P09471; bead-based flow cytometry RGS16-Galphao binding, fluorescence; actives lie on both sides; binding response (% of control), % at 10 µM; 220,000 compounds, 0.38% hits; AID 1441;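 active = below 25% or above 175%, edge rows of some plates excepted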;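 note: Galphao activated by GDP with aluminum fluoride before binding; 100% = wells without compound and 0% = beads without RGS; some results beyond the cut were filed as inactive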
Target sequence (O15492 whole entry, looked up): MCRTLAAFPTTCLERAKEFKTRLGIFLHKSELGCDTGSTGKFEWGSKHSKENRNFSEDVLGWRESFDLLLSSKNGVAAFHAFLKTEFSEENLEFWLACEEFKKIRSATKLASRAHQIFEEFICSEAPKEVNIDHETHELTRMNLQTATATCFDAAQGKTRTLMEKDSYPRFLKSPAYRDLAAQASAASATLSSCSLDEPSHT
Target sequence (P09471 whole entry, looked up): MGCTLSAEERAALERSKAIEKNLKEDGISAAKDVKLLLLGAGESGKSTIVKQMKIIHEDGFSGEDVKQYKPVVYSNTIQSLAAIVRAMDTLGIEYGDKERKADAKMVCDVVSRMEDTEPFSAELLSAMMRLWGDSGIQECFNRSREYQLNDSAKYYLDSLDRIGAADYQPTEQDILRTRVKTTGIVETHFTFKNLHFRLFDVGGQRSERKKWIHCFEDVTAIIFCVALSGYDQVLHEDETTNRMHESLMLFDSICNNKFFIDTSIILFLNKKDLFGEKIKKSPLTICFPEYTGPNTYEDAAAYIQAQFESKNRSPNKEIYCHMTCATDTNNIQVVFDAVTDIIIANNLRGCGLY
HSV replic up = increases HSV replication in cells | maximum fold increase | 220,000 compounds, 0.005% hits | AID 1956 | HSV replication augmentation in cells, fold increase;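 active = peak rise of 1.5-fold or more in the series; tested in PC3 cells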;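 note: first round at 10 µM; read as green reporter fluorescence; hits show the peak of a series up to 25 µM; 1 = signal of infected wells without compound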
Insulin prom inh cell count = further read-out of Insulin prom inh, marked with its call; normalized cell count, %; measured here: cell count, toxicity; reference of the scale not given here;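 cells exposed to compound for 48 h; stained nuclei by imaging scaled within each plate; lower means fewer cells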
HSV replic up primary fold = also measured in HSV replic up; calls as there; fold increase; compound at 10 µM; measured here: primary screen fold increase 10 uM; tested in PC3 cells;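 GFP signal in the first replicate; 1 = infected wells without compound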
An asterisk follows results filed as active; i = inactive; / = no result given.

SMILES	Insulin prom inh	Insulin prom inh cell count	PKD1 inh	GALR2 ag	RGS16-Gao	HSV replic up	HSV replic up primary fold
Cc1[nH]n(-c2ccccc2)c(=O)c1C(c1cccc([N+](=O)[O-])c1)c1c(C)[nH]n(-c2ccccc2)c1=O	7	162	-3	-1.8	111	i	0.84
O=C(O)CNC(=O)CC12CC3CC(CC(C3)C1)C2	-365	40	-8	-1.7	97	i	1
NNC(=O)Cc1csc(-c2ccccc2)n1	/	/	/	/	94	i	1
O=C(O)/C=C\c1cc2c(cc1[N+](=O)[O-])OCO2	/	/	/	/	115	i	0.95
Cc1ccc(-c2csc(N3C(=N)SCC3=O)n2)cc1	/	/	/	/	108	i	0.83
COC(=O)C1=C(C)NC2=C(C(=O)CC(C)(C)C2)C1c1cnn(C)c1C (stereo not drawn)	/	/	-1	0.2	81	i	0.97
CCCOc1cccc(C2/C(=C(/O)c3ccc(OC)cc3)C(=O)C(=O)N2CCN(C)C)c1 (stereo not drawn)	-27	153	-42	-2.3	99	i	0.96
COc1ccc(S(=O)(=O)N(CC(=O)O)c2ccccc2)cc1	-57	81	8	2.7	101	i	1
CC(=O)c1sc2c(c1OC(=O)c1ccc(Cl)cc1Cl)c(=O)n(-c1ccccc1)c(=S)n2-c1ccccc1	/	/	/	/	109	i	1.1
Cc1nc(SCC(=O)c2ccc(F)cc2)n[nH]1	/	/	-4	-1.4	104	i	0.79
COc1ccc(N=C2S/C(=C\c3cccs3)C(=O)N2CC(C)C)cc1	3	94	5	-2.3	105	i	1.1
C=CCn1c(COc2cccc3cccnc23)nnc1SCC(=O)OC	-150	104	16	-1.5	111	i	0.85
O=[N+]([O-])c1ccc(Cl)c(/C=N/N2CCN(Cc3ccccc3)CC2)c1	31	65	-4	-1.5	105	i	0.96
N#Cc1c(NCc2ccccc2)ccnc1NCc1cccnc1	13	68	-10	0.4	103	i	0.87
O=C(Cn1c(CC(=O)N2CCOCC2)nc2ccccc21)Nc1ccc2c(c1)OC(F)(F)O2	-21	64	10	-0.3	102	i	1.2
COc1ccc(CCNS(=O)(=O)c2cnc(Cl)c(Br)c2)cc1OC	/	/	/	/	106	i	1.1
CN(/C=C1/C(=O)CNC1=O)CCO	-6	78	1	/	108	i	0.94
CCCCOC(=O)c1ccc(NC(=O)C(=O)NCc2ccco2)cc1	-83	86	-3	/	72	i	0.96
CCCP(=O)(CC(=O)O)c1ccccc1 (stereo not drawn)	0	103	8	-2.0	114	i	0.99
Cc1cc(N2CCCCC2)nc(-c2ccc(Br)cc2)n1	/	/	1	/	103	i	1
S=C(NC1CCCCC1)N1CCCCC1	/	/	/	/	108	i	0.92
Cc1ccc2cc(C#N)c(SCC(=O)N3CCCc4ccccc43)nc2c1C	-30	111	-2	-2.2	100	/	/
Cc1ccc(NC(=O)N(Cc2ccco2)Cc2cc3cc(C)cc(C)c3nc2Cl)cc1	0	86	-7	-2.6	88	/	/
CCOC(=O)C1=C(O)/C(=C/c2cc(OC)c(OC)c(OC)c2)SC1=Nc1ccc(OC)cc1	/	/	-10	-1.7	103	/	/
COc1ccc(C2c3c(C)nn(-c4ccccc4)c3NC(=O)N2c2ccccc2)cc1 (stereo not drawn)	/	/	-3	-0.1	99	i	0.86
OC(COC(c1ccccc1)c1ccccc1)CN1CCOCC1 (stereo not drawn)	24	102	0	/	98	i	1.1
N/C(=N\OC(=O)/C=C/c1ccccc1)c1ccncc1	14	131	5	/	94	i	0.92
NC1=NC(=Nc2cccc(S(=O)(=O)N3CCOCC3)c2)c2ccccc21	/	/	/	/	99	i	1.2
CC(C)C(=O)Nc1c2c(nc3ccccc13)N(C)CC2	/	/	8	-0.3	117	i	0.98
CCOC(=O)c1ccc(COC(=O)c2ccc(-c3nnc(-c4ccccc4)o3)cc2)o1	-106	59	-5	-3.6	/	i	0.96
O=C(Nc1cnn(Cc2ccc(F)cc2)c1)c1cc2nc(-c3ccco3)cc(C(F)(F)F)n2n1	/	/	-8	0.8	105	i	0.86
Cc1ccc(-c2nnc(N3CCN(C(=O)CN4CCOCC4)CC3)c3ccccc23)cc1	25	94	1	-2.5	103	i	0.78
COc1ccc(C(CCNCc2ccc(OC)c(OC)c2)c2ccc(F)cc2)cc1 (stereo not drawn)	/	/	/	/	94	i	0.66
Cc1ccc(S(=O)(=O)N2CCN(C(=O)CN3CCOCC3)C2)cc1	-9	104	-12	-2.1	102	i	0.94
Cc1ccccc1S(=O)(=O)Cc1ccc(C(=O)N2CCN(c3ncccn3)CC2)o1	/	/	-1	-0.9	98	i	0.92
NC(=O)COn1c(SCC(N)=O)nc2ccccc2c1=O	/	/	/	/	104	i	1

A different layout for part of the listing above:
| SMILES | Insulin prom inh | Insulin prom inh cell count | PKD1 inh | GALR2 ag | RGS16-Gao | HSV replic up | HSV replic up primary fold |
| --- | --- | --- | --- | --- | --- | --- | --- |
| OC(COC(c1ccccc1)c1ccccc1)CN1CCOCC1 (stereo not drawn) | 24 | 102 | 0 | / | 98 | i | 1.1 |
| Cc1ccc(S(=O)(=O)N2CCN(C(=O)CN3CCOCC3)C2)cc1 | -9 | 104 | -12 | -2.1 | 102 | i | 0.94 |
| Cc1ccc(-c2nnc(N3CCN(C(=O)CN4CCOCC4)CC3)c3ccccc23)cc1 | 25 | 94 | 1 | -2.5 | 103 | i | 0.78 |
| O=C(Nc1cnn(Cc2ccc(F)cc2)c1)c1cc2nc(-c3ccco3)cc(C(F)(F)F)n2n1 | / | / | -8 | 0.8 | 105 | i | 0.86 |

Only GALR2 ag and RGS16-Gao (3 entries from above):
smiles | GALR2 ag | RGS16-Gao
NC1=NC(=Nc2cccc(S(=O)(=O)N3CCOCC3)c2)c2ccccc21 | / | 99
COc1ccc(N=C2S/C(=C\c3cccs3)C(=O)N2CC(C)C)cc1 | -2.3 | 105
N/C(=N\OC(=O)/C=C/c1ccccc1)c1ccncc1 | / | 94

Carrying on.
SMILES	Insulin prom inh	Insulin prom inh cell count	PKD1 inh	GALR2 ag	RGS16-Gao	HSV replic up	HSV replic up primary fold
O=C1c2ccccc2-c2nnc(-c3ccc(O)cc3)cc21	11	76	4	/	100	i	1.2
Cc1oc2ccc(OS(C)(=O)=O)cc2c1C(=O)OC(C)C	-7	62	-4	/	105	i	0.79
O=C(O)CCNS(=O)(=O)c1ccccc1	-42	130	-11	0.6	95	i	0.97
CCn1c(SCC(=O)N2CCCc3ccccc32)nnc1-c1ccoc1C	0	51	-11	-2.4	103	i	1
COc1cccc(N(CC(=O)N2CCN(C)CC2)S(=O)(=O)c2ccccc2)c1	/	/	-7	-0.6	107	i	0.78
O=c1[nH]c(CN2CCN(S(=O)(=O)/C=C/c3ccccc3)CC2)nc2ccccc12	/	/	-13	/	101	i	0.87
COc1ccc(CN2C(=O)c3ccccc3C2C(=O)NC2CCCC(C)C2C)c(OC)c1 (stereo not drawn)	/	/	-8	/	102	i	1
Cc1onc(-c2ccccc2Cl)c1C(=O)OCC(=O)c1c(N)n(C)c(=O)n(C)c1=O	/	/	3	/	101	i	0.85
O=C(O)c1ccc(CNC(=O)c2ccc(C(F)(F)F)cc2)cc1	73*	116*	-7	/	110	i	1
CCOC(=O)CSc1n[nH]c(-c2cccnc2)n1	18	100	-4	-4.1	99	/	/
O=S1(=O)C=CC(Nc2ccccc2)C1 (stereo not drawn)	-23	91	-2	-0.5	106	i	0.95
CC1CCN(C(=O)c2ccc(N3C(=O)C4CCC(C)CC4C3=O)cc2)CC1 (stereo not drawn)	/	/	/	/	45	i	0.91
O=C(C1CC1)N1CCc2cc(Br)cc(S(=O)(=O)NCc3ccco3)c21	-31	97	-11	-1.0	98	i	0.92
Cc1ccccc1-c1nnn(CC(=O)Nc2ccc3c(c2)OCO3)n1	/	/	2	/	63	i	1.1
CN(Cc1ccc(Cl)cc1)C(=O)CCl	/	/	-10	/	107	i	0.95
O=C(CCc1nc2ccccc2c(=O)[nH]1)OCc1ccc(Cl)cc1Cl	46	94	-7	-0.7	105	i	0.93
Cc1nnc(N/N=C/c2cccs2)[nH]c1=O	/	/	/	/	100	i	1.1
CC1CCCN(C(=O)CNC(=O)Cn2ccc3ccccc3c2=O)C1 (stereo not drawn)	/	/	-16	-1.9	100	i	0.97
Cc1ccc(OCC(=O)Nc2nnc(-c3ccco3)s2)cc1	/	/	/	/	105	i	1.2
CCOCCCNC(=O)c1cc2sc(Cl)cc2n1CC	/	/	-5	-0.3	94	i	0.98
CCNC(=O)CSc1nc2ccccc2c(=O)n1-c1cc(OC)ccc1OC	14	114	6	-2.5	102	i	0.83
Cc1cc(S(=O)(=O)NCc2ccc(N3CCN(C)CC3)cc2)c(C)s1	/	/	/	/	101	i	1
O=C(Nc1ccc(OCC(F)(F)C(F)F)c(C(F)(F)F)c1)c1ccc(Cl)cc1	4	97	-5	-2.0	/	i	0.69
O=C(NCCOCCOCCNC(=O)c1cccnc1)c1cccnc1	/	/	3	-2.1	101	i	1
C=CCn1c(SCC(=O)c2c(N)n(C)c(=O)n(C)c2=O)nnc1-c1ccncc1	/	/	0	/	99	i	0.8
COc1ccc2c(c1)C(=O)N(c1ccc(C)cc1)C(=O)C2	30	227	-7	-1.7	98	i	1
O=C(c1cc2nc(-c3ccco3)cc(C(F)(F)F)n2n1)N1CCN(c2ccccn2)CC1	3	57	7	-0.4	96	i	0.97
O=C(CN1CCN(S(=O)(=O)c2ccc(Br)cc2)CC1)N/N=C/c1ccncc1	/	/	/	/	96	i	0.91
CC(Sc1nnc(-c2cccs2)n1-c1ccccc1)C(=O)NCc1ccco1 (stereo not drawn)	-162	85	-7	-2.6	100	i	0.98
CC1=C(C(=O)Nc2ccccc2)C(c2cccs2)C(C#N)=C(SCC#N)N1 (stereo not drawn)	-3	111	-6	-1.2	86	/	/
c1cc(Nc2ncnc3sc4c(c23)CCC4)ccn1	-37	108	-2	/	103	i	0.99
OCCNCCCCOc1ccccc1F	-29	70	2	0.6	99	i	0.98
O=C(CCn1c(=O)sc2ccccc21)Nc1ccon1	31	170	-15	-2.0	103	i	0.89
O=c1c2ccccc2nnn1CSc1nc2ccccc2c(=O)n1CCCO	-9	117	-13	/	107	i	0.84
FC(F)(F)c1nnc2sc(-c3ccco3)nn12	/	/	-9	-2.4	98	i	0.96
CC(C)c1nnc(NC(=O)C2CCN(S(=O)(=O)c3ccc(-n4cnnn4)cc3)CC2)s1	-87	58	-8	/	101	i	0.98
O=C(COc1ccccc1[N+](=O)[O-])N/N=C/c1cccs1	34	116	-1	-0.8	99	i	0.87
Brc1ccc(-c2csc(N3CCOCC3)n2)cc1	/	/	7	/	100	i	1.2
COc1ccccc1CNC(=O)N[C@@H](Cc1ccccc1)C(=O)O	-76	77	-7	-1.9	95	i	0.84
COc1ccccc1N1CCN(c2nc3c(C)cccn3c(=O)c2C=O)CC1	-2	82	7	2.0	42	i	0.79
O=C(CCNC(=O)Cn1ccc2ccccc2c1=O)NCCCN1CCN(c2ccc(F)cc2)CC1	/	/	9	-1.2	108	i	1.1
CCC(c1nnnn1Cc1ccc(OC)cc1)N(CCCO)Cc1cc2cc3c(cc2[nH]c1=O)OCO3 (stereo not drawn)	-21	135	0	-1.6	105	i	0.88
Fc1ccc(Nc2nc(Oc3ccc4c(c3)OCO4)nc(N3CCOCC3)n2)c(F)c1	38	93	-12	0.4	108	i	1.1
COc1ccc(/C=C/C(=O)OCc2cccc([N+](=O)[O-])c2)cc1	36	52	-7	/	76	i	0.97
CC(C)OC(=O)COc1ccc(-c2ccccc2)cc1	-6	155	2	-1.2	103	i	1
O=C(CCn1c(=O)oc2ccccc21)Nc1nc2ccccc2s1	/	/	-6	-0.7	115	i	0.74
O=C(NCC1CCCO1)c1cc(S(=O)(=O)N2CCCC2)c(Cl)cc1Cl (stereo not drawn)	/	/	-1	/	104	i	1
O=C(CSc1nnc(Cc2ccccc2)n1-c1ccc(F)cc1)N1CCOCC1	64	81	0	0.0	98	i	0.86
CC1CCN(CC(=O)Nc2ccc(N3CCCCCC3)cc2)CC1	/	/	4	/	102	i	0.94
CN(c1ccc(C(=O)NCC2CCCO2)cc1)S(=O)(=O)c1ccccc1 (stereo not drawn)	-9	105	6	-2.8	103	i	0.86
CC(=O)Nc1cccc(C(=O)O)n1	0	79	-3	/	97	i	0.91
CCOCCCNC(=O)c1c[nH]c2ccc(C)cc2c1=O	25	102	-3	-2.0	101	i	0.82
Cc1ccc(/C=C/C(=O)Nc2ccc(S(N)(=O)=O)cc2)o1	/	/	-7	/	104	i	1.1
O=C(Cc1c[nH]c2ccccc12)Nc1nnc(C2CC2)s1	/	/	-18	/	91	i	0.86
O=C(CSCc1ccc(F)cc1)Nc1ccccc1C(=O)N1CCOCC1	/	/	-8	-0.1	108	i	0.96
O=C(NCC(=O)N1CCCC1)c1cccs1	0	99	-4	-0.9	105	i	0.87
COc1ccc(/C=N/NC(=O)Cn2c(Cc3ccc(OC)c(OC)c3)nc3ccccc32)cc1	/	/	-7	-2.2	104	i	1

The order is random; overall some 1.3% were active at least once.
